Screens from PubChem BioAssay.
GIV Gai3 FP – blocks GIV peptide binding to rat Galpha-i3; P08753; Galpha-i3/FITC-GIV peptide fluorescence polarization, 90 min; stronger effect = lower value; scaled: aluminum fluoride 0%, vehicle 100%; percent of control (FP), % (no concentration beside the values); 0.42% of 210,000 active; AID 1224905;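 active means replicate mean at 85% of control or lower, very high polarization wells dropped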;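 further: wells of about 15 µL received 100 nL stock; the first replicate is given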
Target sequence (P08753 whole entry, looked up): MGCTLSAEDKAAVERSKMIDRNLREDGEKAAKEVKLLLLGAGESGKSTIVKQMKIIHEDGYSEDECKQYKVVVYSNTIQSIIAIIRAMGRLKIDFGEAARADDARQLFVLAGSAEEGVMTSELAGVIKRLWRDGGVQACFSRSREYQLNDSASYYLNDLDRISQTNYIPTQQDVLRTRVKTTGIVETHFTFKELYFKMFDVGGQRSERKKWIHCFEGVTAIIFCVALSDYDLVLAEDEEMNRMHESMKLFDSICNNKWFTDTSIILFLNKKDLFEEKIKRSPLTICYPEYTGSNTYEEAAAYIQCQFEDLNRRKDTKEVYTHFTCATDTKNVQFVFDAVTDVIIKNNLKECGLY
Sa growth 42C – blocks Staphylococcus aureus growth. relative growth, % (test concentration not listed). S. aureus RN4220 growth, OD600, 20 h, 42 °C; stronger effect = lower value. 0.53% of 170,000 active;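 active means growth at 42 °C up to 50% and 20 or more points under that at 30 °C, or under 10% at both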;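 further: 300 nL library stock went into each well; scaled to the means of positive and negative controls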
HCMV UL50-53 inh – disrupts HCMV UL50-UL53 complex binding; AID 1918969; inhibition, % (concentration not given with the values); 0.15% of 190,000 active; HTRF UL50-UL53 interaction, normalized percent inhibition;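 active means both replicates at 50% or more, plus weaker picks with an unusually low signal ratio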;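 further: stock transfer was 100 nL into about 20 µL; 0% = negative control wells and 100% = wells with untagged competitor protein; inactives centre near -12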
Sa growth 42C second temp – second read-out of Sa growth 42C, no call of its own (marks repeat the call); relative growth, %; measured here: growth at 30 °C;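 optical density after 20 h as mean of two plates; 100% = untreated growth and lower means inhibition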
Numbers without * were called inactive; / = not tested or not shown; & = joins results of further samples.

#1 Nc1cc(Cl)ccc1NCc1ccccc1
#2 Cc1ccc(C(C(=O)O)N2Cc3ccccc3C2=O)cc1 (configuration not stated)
#3 Cc1cc2oc(C(=O)Nc3c(C(=O)Nc4ccccc4)oc4ccccc34)cc(=O)c2cc1C
#4 CC(=O)c1ccc(NC(=O)c2cc3sccc3n2Cc2ccc(Cl)cc2)cc1
#5 Cc1ccc(-c2nc(Nc3ccccc3F)sc2C)cc1
#6 FC(F)(F)COc1nc(N2CCOCC2)nc(N(c2ccccc2)c2ccccc2)n1
#7 CCN(CC)CC(=O)Nc1nc2ccc(OC)cc2s1
#8 CCOC(=O)c1nc(-c2nnn(-c3ccc(F)cc3)c2C)sc1C
#9 O=C(C1CCCCC1)N(Cc1cccnc1)c1nc2ccc(F)cc2s1
#10 Cc1nn(-c2ccccc2)c(-n2cccc2)c1C(=O)NC(C)c1ccc2c(c1)OCCO2 (configuration not stated)

screen / no.	1	2	3	4	5	6	7	8	9	10
GIV Gai3 FP	/	106.7	103.8	96.6	101.8	99.1	100.1	102.8	97.0	102.5
Sa growth 42C	93.9	78.4	97.5	95.9	92.8	108.9	109.1	/	109.1	77.4
Sa growth 42C second temp	80.5	94.8	90.9	88.2	69.6	100.1	80.7	/	88.4	71.5
HCMV UL50-53 inh	-5.6	-24.2	4.7	-35.0	/	-2.2	-2.9	-27.3	/	-6.3

2 compounds drawn at random from the list so far:
#7 CCN(CC)CC(=O)Nc1nc2ccc(OC)cc2s1
#1 Nc1cc(Cl)ccc1NCc1ccccc1

screen / no.	7	1
GIV Gai3 FP	100.1	/
Sa growth 42C	109.1	93.9
Sa growth 42C second temp	80.7	80.5
HCMV UL50-53 inh	-2.9	-5.6

Continued.
#11 O=C(/C=C/c1ccc(O)c(O)c1)OCCc1ccccc1
#12 COc1cc(/C=C2/C(=N)N3N=C(c4ccccc4C)SC3=NC2=O)ccc1OC(=O)c1ccco1
#13 Cc1ccc(N2C(=O)CSC23C(=O)Nc2ccccc23)cc1C (configuration not stated)
#14 C/C(=N\N)c1nnn(-c2nonc2N)c1C
#15 O=C(Nc1ccc(N2CCN(c3ccc(C(F)(F)F)cn3)CC2)nc1)c1ccco1
#16 O=C(CCn1c(=S)oc2ccccc21)NC1CCCCC1
#17 CCC(=O)c1cc2c(cc1NC(=O)c1cccc(Cl)c1)OCCO2
#18 Nc1nc2ccc3c(c2s1)CCCC3
#19 O=C(O)c1cc(=O)c2cc(Br)ccc2o1
#20 COc1ccccc1NCN1C(=O)S/C(=C/c2ccc(OC)c(OC)c2)C1=O

screen / no.	11	12	13	14	15	16	17	18	19	20
GIV Gai3 FP	99.5	123.8	100.9	/	102.1	104.6	99.1	/	/	98.4
Sa growth 42C	/	108.4	/	86.7	84.9	97.6	97.5	79.9	85.6	/
Sa growth 42C second temp	/	76.0	/	91.5	87.3	92.5	77.3	77.2	84.9	/
HCMV UL50-53 inh	-2.8&-26.2&-26.2&-10.3&-28.7	-17.7	-19.0	5.6	-35.6	-27.0	17.2	-5.9	-18.2	-95.8

#21 N#Cc1cccc(NC(=O)Nc2cccs2)c1
#22 COc1ccccc1C(=O)N(Cc1ccccc1F)C1CCS(=O)(=O)C1 (configuration not stated)
#23 Cc1ccccc1OCC(=O)Nc1cccc(N2C(=O)c3ccccc3C2=O)c1
#24 O=C(NCc1ccc2[nH]c3c(c2c1)CCCC3)c1ccccc1
#25 CNC(=O)N1CCCC(c2cccc(C(=O)NC(C)c3ccc(F)cc3)c2)C1 (configuration not stated)
#26 CC(C)(C)NC(=O)Cn1nnc(-c2cccc(C(F)(F)F)c2)n1
#27 COCN(C#N)c1nc(OC)nc(OC)n1
#28 Nc1ccccc1SC1CC(=O)N(c2ccccc2)C1=O (configuration not stated)
#29 Cc1cccc(NC(=O)Cn2c(=O)oc3cc(S(=O)(=O)N4CCCCCC4)ccc32)c1
#30 CC(C)N(c1ccccc1)c1ccc(NC(=S)NCCN(C)C)cc1

screen / no.	21	22	23	24	25	26	27	28	29	30
GIV Gai3 FP	101.9	106.8	/	99.3	103.8	/	105.6	103.4	99.0	/
Sa growth 42C	17.9	105.4	93.7	/	/	94.0	104.5	115.5	111.3	120.7
Sa growth 42C second temp	9.8	96.8	86.6	/	/	95.1	85.1	108.7	81.1	87.1
HCMV UL50-53 inh	-7.8	-2.1	1.5	-4.6&-32.2	-12.5	-6.1	-13.1	-1.6	6.9	-9.3

#31 Cc1ccc(Cn2ccc(NC(=O)c3cc(-c4ccc(Cl)c(Cl)c4)on3)n2)cc1
#32 Cc1ccc2cccc(NC(=O)c3ccc(-c4cccc([N+](=O)[O-])c4)o3)c2n1
#33 CCOC(=O)c1oc2c(O)c(O)ccc2c(=O)c1-c1nncn1-c1ccccc1
#34 CC(C)C1Cc2c(sc3nc(SCc4ccc(Cl)c(Cl)c4)nc(N)c23)CO1 (configuration not stated)
#35 COc1ccc(NC(=O)NC(C)c2c(-n3cccc3)sc3c2CCN(C)C3)c(OC)c1 (configuration not stated)
#36 CCOc1ccc(C(=O)N(c2ccc(Cl)cc2)C2C=CS(=O)(=O)C2)cc1OCC (configuration not stated)
#37 CC(Sc1nc(N)nc(N)n1)C(=O)NC1(C#N)CCCCC1 (configuration not stated)
#38 OC(CNc1nc(C(F)(F)F)nc2ccccc12)c1ccccc1 (configuration not stated)
#39 CCCS(=O)(=O)c1nc2ccccc2n1CCN1CCOCC1
#40 O=C1Nc2ccccc2O/C1=C\c1ccc(C(=O)NCc2ccco2)cc1

screen / no.	31	32	33	34	35	36	37	38	39	40
GIV Gai3 FP	100.0	99.7	99.9	98.3	106.3	104.8	/	/	97.5	103.2
Sa growth 42C	90.2	89.5	-0.2	81.2	101.8	104.0	100.5	98.9	84.1	99.9
Sa growth 42C second temp	86.9	100.2	-0.2	84.2	91.8	88.5	96.5	67.8	86.2	70.0
HCMV UL50-53 inh	1.3	-21.6	-28.9	/	/	7.5	5.7	-27.9	-19.4	-22.3

#41 Cc1csc2sc(-c3ccnc(SCC(=O)NCc4ccccc4)n3)c(C)c12
#42 COCCn1c(CCCO)nc2ccccc21
#43 Cc1ccc(S(=O)(=O)Nc2c(-n3cnnc3)nn(C)c2C)cc1C
#44 CCOC(=O)c1ccccc1NC(=O)N(Cc1ccc(CC)cc1)Cc1cn[nH]c1-c1ccc(OC)cc1
#45 CCCCN(C)CCNC(=O)c1cc2c(=O)n(C)c3ccccc3c2n1C
#46 Cc1cc2c(cc1C)/C(=C\C(N)=O)NC(C)(C)C2
#47 O=C(NCc1ccccc1)C1COc2ccccc2O1 (configuration not stated)
#48 O=C(COC(=O)c1cc(-c2ccccc2)nc2c(Cl)cccc12)c1ccc(F)cc1
#49 Cc1cccc(CN2C(=O)c3ccccc3S(=O)(=O)c3ccc(C(=O)NC4CCCCC4)cc32)c1
#50 COc1ccc(NC(=O)Cn2c(=O)n(-c3cccc(C)c3)c(=O)c3c2c2cc(C)ccc2n3C)cc1OC

screen / no.	41	42	43	44	45	46	47	48	49	50
GIV Gai3 FP	98.9	102.6	97.8	97.5	101.8	/	104.0	98.8	106.3	103.4&101.0
Sa growth 42C	100.7	88.7	/	110.2	106.2	95.8	/	103.3	95.1	101.4
Sa growth 42C second temp	83.2	86.6	/	83.0	88.4	69.1	/	87.2	86.6	94.2
HCMV UL50-53 inh	-26.8	-14.4	-20.8	-7.4	-34.7	-3.7	-15.6	-34.3	-31.9	-8.7&-27.9

Part of the list above, limited to HCMV UL50-53 inh:
| entry | Structure | HCMV UL50-53 inh |
| --- | --- | --- |
| 16 | O=C(CCn1c(=S)oc2ccccc21)NC1CCCCC1 | -27.0 |
| 17 | CCC(=O)c1cc2c(cc1NC(=O)c1cccc(Cl)c1)OCCO2 | 17.2 |
| 18 | Nc1nc2ccc3c(c2s1)CCCC3 | -5.9 |
| 19 | O=C(O)c1cc(=O)c2cc(Br)ccc2o1 | -18.2 |
| 20 | COc1ccccc1NCN1C(=O)S/C(=C/c2ccc(OC)c(OC)c2)C1=O | -95.8 |
| 21 | N#Cc1cccc(NC(=O)Nc2cccs2)c1 | -7.8 |

Next section.
#51 O=C(COC(=O)C1CCC(=O)N1)Nc1ncc(C(F)(F)F)cc1Cl (configuration not stated)
#52 COC(=O)C1CCN(C2=NS(=O)(=O)c3ccccc32)CC1
#53 Cc1cc(C)c(S(=O)(=O)Nc2ccc3[nH]c(=O)oc3c2)c(C)c1
#54 Cc1ccc(C2CC(=O)c3c(n[nH]c3C)C2)cc1 (configuration not stated)
#55 C=CCn1c(P(C)(=O)N2CCCCC2)nc2ccccc21 (configuration not stated)
#56 COc1ccc(N2CCN(S(=O)(=O)c3ccc4c(c3)CCCN4C(C)=O)CC2)cc1
#57 O=S(=O)(c1ccc(-c2cc(C(F)(F)F)on2)s1)N1CCN(c2ccccc2F)CC1
#58 Cc1cc(C)cc(NC(=O)C2CCC(CNS(=O)(=O)c3ccc4c(c3)C(C)(C)C(=O)N4C)CC2)c1 (configuration not stated)
#59 O=C1C(=Cc2cn(CC(=O)N3CCOCC3)c3ccccc23)C(=O)c2ccccc21
#60 COc1ccc(NC(=O)C2CCCN(S(=O)(=O)c3ccc4[nH]c(=O)ccc4c3)C2)cc1Cl (configuration not stated)

screen / no.	51	52	53	54	55	56	57	58	59	60
GIV Gai3 FP	/	/	101.7	98.9	/	99.2	102.3	103.0	149.4	99.8
Sa growth 42C	91.8	99.5	/	88.9	106.4	87.9	91.1	87.8	88.1	95.7
Sa growth 42C second temp	94.4	93.6	/	81.8	91.3	85.0	93.9	81.8	85.2	79.2
HCMV UL50-53 inh	-4.9	-4.3	-15.7	9.1	-17.1	/	/	/	-60.2	/

#61 CCOC(=O)c1ccn(-c2nc(-c3cccc(OC)c3)cc(C(F)(F)F)n2)n1
#62 Cc1ccccc1C(=O)c1cccn1CC(=O)NC1CCCC(C)C1C (configuration not stated)
#63 CCOc1ccc(-c2c(C)nn3c(C)c(C(=O)Nc4ccccc4C(=O)OC)cnc23)cc1OCC
#64 CCc1cccc(C)c1NC(=O)Cn1nc(C)n2cccc2c1=O
#65 Cc1ccccc1Cn1c2ccccc2c2cnn(CC(=O)NC(C)C)c(=O)c21
#66 CC(O)c1nc2ccccc2n1C1CCCCC1 (configuration not stated)
#67 Cn1c(SCCN2CCCC2)nnc1C1CCN(S(=O)(=O)c2cccc(F)c2)CC1
#68 CC(C)CNS(=O)(=O)c1cc(C(=O)O)c(Cl)cc1Cl
#69 O=C(Cn1c(=O)sc2ccccc21)OC(C(=O)c1ccccc1)c1ccccc1 (configuration not stated)
#70 Cc1ccc(Nc2c(-c3cccc(Cl)c3)nc3cccc(C)n23)cc1

screen / no.	61	62	63	64	65	66	67	68	69	70
GIV Gai3 FP	108.9	105.9	107.6	107.7	102.8	/	96.6	/	/	102.4
Sa growth 42C	85.5	106.6	104.3	112.3	94.8	97.9	80.1	107.9	99.8	101.2
Sa growth 42C second temp	86.5	85.2	91.5	86.8	71.6	82.6	91.0	99.0	98.8	95.3
HCMV UL50-53 inh	4.8	5.1	/	1.4	-8.5	-19.8	9.8	21.0	3.8	59.9

#71 COc1ccc(C2CC(=O)N(Cc3ccccc3)c3c2c(C)nn3-c2nc(C)cc(C)n2)c(OC)c1 (configuration not stated)
#72 C=C(C)CSc1nc2sc3c(c2c(=O)n1Cc1ccccc1)CC(C)(C)OC3
#73 COc1cc2nc3c4ccccc4n(CCC(C)C)c3nc2cc1OC
#74 CC(=O)c1ccc(NC(=O)CSc2nc(=O)n(Cc3ccccn3)c3c2CCC3)cc1
#75 CCOC(=O)c1cc(NC(=O)N2CCN(CC)CC2)c(C)nc1C
#76 CCC1=Nc2cc(C(=O)NCCCN3CCOCC3)ccc2Sc2ccc(Br)cc21

screen / no.	71	72	73	74	75	76
GIV Gai3 FP	98.2	92.3	101.6	100.7	97.6	100.8
Sa growth 42C	94.7	/	/	111.4	/	104.3
Sa growth 42C second temp	82.9	/	/	80.5	/	91.8
HCMV UL50-53 inh	-31.5	8.5	-26.7	/	-15.4	/

Record cards, from the list above. Order of values: GIV Gai3 FP | Sa growth 42C | Sa growth 42C second temp | HCMV UL50-53 inh
`O=C(COC(=O)c1cc(-c2ccccc2)nc2c(Cl)cccc12)c1ccc(F)cc1` as listed: 98.8 | 103.3 | 87.2 | -34.3
`COc1ccc(C2CC(=O)N(Cc3ccccc3)c3c2c(C)nn3-c2nc(C)cc(C)n2)c(OC)c1` (configuration not stated) as listed: 98.2 | 94.7 | 82.9 | -31.5
`O=C(CCn1c(=S)oc2ccccc21)NC1CCCCC1` as listed: 104.6 | 97.6 | 92.5 | -27.0
`Cc1ccc(S(=O)(=O)Nc2c(-n3cnnc3)nn(C)c2C)cc1C` as listed: 97.8 | / | / | -20.8
